Screening results (PubChem BioAssay)
Vaccinia mCherry = qHTS for Stage-Specific Inhibitors of Vaccinia Orthopoxvirus: mCherry Reporter Primary qHTS; Vaccinia virus mCherry reporter infection, fluorescence; about a quarter of the inactives have no number; Potency, µM (doses to about 36.5 µM), for inactives: at the highest dose activity change, negative = inhibition, hits mostly inhibitors; 310,000 tested, 0.63% active; active = well fitted inhibition curve with a large enough effect; inconclusive = small, poorly fitted or top-dose-only effect; inactive = no such curve, though single readings can be large or run the other way; tested in A549 cells; also: nearly all actives have a fitted effect of over 35% in size; inactives centre near -10
Vaccinia Venus = qHTS for Stage-Specific Inhibitors of Vaccinia Orthopoxvirus: Venus Reporter Primary qHTS; Potency, µM (highest dose often 36.5 µM), for the others: at the highest dose activity change, negative = inhibition, usual class: inhibitors; Vaccinia virus Venus reporter expression, fluorescence; 330,000 tested, 0.46% active; active means well fitted inhibition curve with a large enough effect; inconclusive means small, poorly fitted or top-dose-only effect; inactive means no such curve, though single readings can be large or run the other way; tested in A549 cells; also: nearly all actives have a fitted effect of over 30% in size; inactives centre near -10
* marks the source's active call; other numbers are inactive results; i = inactive; ? = inconclusive; · = no result given; [ ] = another dose, or the depositor's remark. % is scaled to controls: 0 for no effect and ±100 for the full control effect; potency is read from the fitted curve at half-maximal effect.

1) O=C(Oc1ccccc1)N1CCN(c2ccccc2F)CC1
2) Cc1cc(S(=O)(=O)Nc2ccc3oc4c(c3c2)CCCC4)ccc1Cl
3) Cc1cc(N(C)C)cc(C)c1/C=C/c1cc[n+](C)c2ccccc12
4) O=C(COC(=O)c1n[nH]c2ccccc12)Nc1ccc([N+](=O)[O-])cc1
5) O=[N+]([O-])c1ccc(S(=O)(=O)NCCc2cn3ccccc3n2)cc1
6) CCCOc1ccc(C(C)=O)cc1CN1CCOCC1
assay / entry	1	2	3	4	5	6
Vaccinia Venus	?	1%	-23%	-4%	-26%	-6%
Vaccinia mCherry	-19%	-15%	-27%	0%	-4%	-14%

7) CCOCCCNC(=O)N[C@@H](Cc1ccccc1)C(=O)OC
8) C=CCN(CC=C)S(=O)(=O)c1ccc(NC(=O)COc2ccccc2OC)cc1
9) CC(=O)SC1CC2=CC(=O)CCC2(C)C2CCC3(C)C(CCC34CCC(=O)O4)C12 (stereo not drawn)
10) S=C(NCc1ccccc1)N1CCN(c2cccc(Cl)c2)CC1
11) CCOC(=O)C1(Cc2ccccc2C)CCCN(S(=O)(=O)c2cccnc2)C1 (stereo not drawn)
12) C[C@H]1CC[C@H]2NCCN[C@H]2C1
assay / entry	7	8	9	10	11	12
Vaccinia Venus	7%	-12%	-21%	-8%	-9%	-12%
Vaccinia mCherry	2%	0%	-22%	-13%	-10%	i

13) CC(C)(C)C(=O)CSc1n[nH]c(-c2ccccc2)n1
14) Cc1cc(C)nc(/N=C(\N)Nc2ccc(CC(=O)OC(C)C)cc2)n1
15) CCCCn1c(SCC(=O)NC2CC2)nc2cc(C(=O)OC)ccc2c1=O
16) Cc1ccc2oc(=O)c3cc(C(=O)Nc4cccc(C#N)c4)sc3c2c1
17) Cc1ccc(CC(C)(O)CC(C)(O)Cc2ccc(C)cc2)cc1 (stereo not drawn)
18) COc1ccc(NC(=S)N2CCN(Cc3ccccc3)CC2)cc1
assay / entry	13	14	15	16	17	18
Vaccinia Venus	?	?	-8%	-1%	?	-15%
Vaccinia mCherry	?	?	i	2%	-18%	-18%

19) Cc1cc(C)c(Cn2c(=O)n(CCCCC(=O)NCc3ccccc3Cl)c(=O)c3ccccc32)c(C)c1
20) O=C(CNC(=S)N(Cc1ccccc1)Cc1ccccc1F)NCc1ccc(Cl)cc1
21) Cc1ccc(S(=O)(=O)Nc2nc3ccccc3nc2N2CCc3ccccc3C2)cc1
22) CC1OC(n2cc(F)c(=O)[nH]c2=O)C(O)C1O (stereo not drawn)
23) COc1ccc(COCC(O)CN2CCN(S(=O)(=O)c3c(F)cccc3F)CC2)cc1OC (stereo not drawn)
24) CN1CCC(N2CCN(C3CN(C4CCCC4)S(=O)(=O)C3)CC2)CC1 (stereo not drawn)
assay / entry	19	20	21	22	23	24
Vaccinia Venus	-6%	-27%	-26%	0%	-4%	6%
Vaccinia mCherry	-7%	-10%	?	i	-19%	54%[activator]

25) CC(C)(C)OC(=O)C[C@@H]1C/C=C\C[C@@H](CC(=O)NCCO)C(=O)N[C@H](Cc2ccccc2)COC1=O
26) Cn1nc(-c2ccc(Cl)cc2)c2cc(C(=O)NC3CC3)sc21
27) COc1c2occc2c(OC(C)=O)c2c(=O)cc(C)oc12
28) Cc1ccc(SCC(=O)c2cc(C)c(OC(=S)N(C)C)c(C)c2)cc1
29) COc1ccc(N2CCN(C(=O)NC34CC5CC(CC(C5)C3)C4)CC2)cc1
30) CCOC(=O)C1=C(C)N=c2sc(=Cc3ccc(OCC(=O)O)cc3)c(=O)n2C1c1ccc(Cl)cc1 (stereo not drawn)
assay / entry	25	26	27	28	29	30
Vaccinia Venus	-6%	-6%	-13%	-11%	?	-2%
Vaccinia mCherry	i	10%	-2%	·	-26%	i

31) CCc1cccc(NCc2ccccc2-c2nnc(-c3ccccc3Cl)o2)c1
32) Cc1cc(NC(=O)CN2C(=O)NC(C)(c3ccc(Cl)cc3Cl)C2=O)no1 (stereo not drawn)
33) O=C(NCc1ccc(Cl)cc1)C(=O)NCC(c1ccc2c(c1)OCO2)N1CCOCC1 (stereo not drawn)
34) COc1ccc(NC(=O)Cn2c(-c3ccc(F)cc3)cc(C(C)=O)c2C)c(OC)c1
35) COc1ccc(OCCn2nnc3sc4c(c3c2=O)CCC(C(C)(C)C)C4)cc1 (stereo not drawn)
36) CCOc1ccccc1NC(=O)COC(=O)C12CC3CC(CC(O)(C3)C1)C2
assay / entry	31	32	33	34	35	36
Vaccinia Venus	0%	14%	-14%	-10%	-7%	-9%
Vaccinia mCherry	-1%	-11%	-6%	-18%	-10%	-7%

37) Cc1ccc(S(=O)(=O)NC(=O)COc2ccc(Cl)cc2Cl)cc1
38) O=C(NC1CCCCC1)c1cc2nc(-c3ccco3)cc(C(F)(F)F)n2n1
39) NC(=O)c1cccnc1Sc1ccc(Cl)cc1
40) Cc1nn(C)c2c1c(C(F)(F)F)cc(=O)n2CC(=O)N1CCCCC1C (stereo not drawn)
41) O=C(NCc1ccc(F)cc1)C(c1ccco1)N(C(=O)c1csnn1)C1CC1 (stereo not drawn)
42) O=C(Cn1cnc2ccccc21)N/N=C/c1ccccn1
assay / entry	37	38	39	40	41	42
Vaccinia Venus	-21%	-1%	-10%	6%	6%	-12%
Vaccinia mCherry	0%	i	-5%	6%	-25%	·

43) CCc1noc(C)c1C(=O)NCCc1ccccc1
44) CN(Cc1ccc(F)cc1)C(=O)CN1C(=O)c2ccccc2S1(=O)=O
45) Nc1ncnc(N)c1NC(=O)c1cc(Cl)c(OCc2ccccc2)c(Cl)c1
46) Cc1cc(NC(=O)c2cccn2-c2nnc(N3CCCCC3)s2)ccc1Br
47) CC(c1cccnc1)N(CCN(C)C)C(=O)Nc1ccc(Cl)cc1 (stereo not drawn)
48) CSCCNCc1cn(-c2ccc(F)cc2F)nc1-c1ccccc1C
assay / entry	43	44	45	46	47	48
Vaccinia Venus	1%	-1%	-5%	-8%	-18%	-10%
Vaccinia mCherry	-10%	-15%	i	-20%	-9%	-7%

49) COc1ccc(-n2nnnc2SCC(=O)Nc2nc3c(s2)CCCC3)cc1
50) Nc1ncc(Br)cc1S(=O)(=O)NCCC(=O)Nc1cccc(Cl)c1
51) O=C(Nc1ccccc1)C1=C[C@H](c2csc3ccccc23)C[C@H](OCCCCO)O1
52) CCCN1C(=S)c2ccccc2C1c1ccccc1 (stereo not drawn)
53) Cc1ccc(S(=O)(=O)N2CCOCC2)cc1NC(=O)COc1cccc(-n2cnnn2)c1
54) O=C(CCCn1c(SCC(=O)Nc2ccccc2Cl)nc2ccccc2c1=O)NCC1CCCO1 (stereo not drawn)
assay / entry	49	50	51	52	53	54
Vaccinia Venus	?	-21%	?	12%	-17%	-5%
Vaccinia mCherry	-22%	-13%	-30%	-11%	-27%	-13%

55) S=c1[nH]nc(COc2ccccc2)n1/N=C/C=C/c1ccco1
56) O=[N+]([O-])c1nccn1CCCCCCCCCCCN1CCOCC1
57) COc1cc2cc(CN(Cc3cccs3)C(=S)Nc3ccc(C)cc3)c(=O)[nH]c2cc1OC
58) CC1(C)CC(=O)C(=C2SCCCS2)C(=O)C1
59) COC(=O)C1CC(=O)N(CCc2c[nH]c3ccccc23)C1 (stereo not drawn)
60) COc1ccc(CCNC(=O)c2c(C)nn(CC(C)C)c2Cl)cc1
assay / entry	55	56	57	58	59	60
Vaccinia Venus	-7%[7.34 µM]	-6%	-29%	-9%	-7%	-18%
Vaccinia mCherry	-2%[7.34 µM]	-2%	-4%	-12%	i	?

61) COc1ccc(CNC(=O)[C@H](C)[C@@H]2C[C@@]2(C)[C@@H](NC(=O)OCc2ccccc2)c2ccccc2)cc1OC
62) CS(=O)(=O)c1ccccc1C(=O)NCCC(c1ccccc1)c1ccccc1
63) O=S(=O)(Nc1ccc(Cc2ccncc2)cc1)N1CCCC1
64) CCCNC(=O)C(NS(=O)(=O)c1ccc2c(c1)c(=O)n(C)c(=O)n2C)c1ccccc1 (stereo not drawn)
65) COc1cc(/C=N/NC(=O)c2cccnc2)ccc1OCC(=O)Nc1c(C)cc(C)cc1C
66) CCOC(=O)CSc1nnc2n(Cc3ccccc3)c(=O)c3c4c(sc3n12)CCC4
assay / entry	61	62	63	64	65	66
Vaccinia Venus	-20%	-19%	-14%	-1%	-3%	-11%
Vaccinia mCherry	i	-37%	i	-21%	i	-11%

67) CCOCCCNC(=O)C1CC(=O)N(C2CCCC2)C1 (stereo not drawn)
68) CC(C)C[C@@H](COc1ccccc1)N1CCN(CC(C)C)CCC1=O
69) CCN(CC)S(=O)(=O)c1ccc(N2CCOCC2)c(NC(=O)c2cc(C)cc(C)c2)c1
70) Cc1cc2oc(=O)cc(C)c2cc1NC(=O)CCl
71) O=[N+]([O-])c1cc(/C=N/O)ccc1Sc1ccccc1
72) CC(C)NC(=O)C1(C)CCCN1C(=O)c1cc(C#N)cs1 (stereo not drawn)
assay / entry	67	68	69	70	71	72
Vaccinia Venus	-1%	2%	-25%	?	?	6%
Vaccinia mCherry	-15%	i	-25%	?	·	15%

Compound profiles, as listed above. Order of screens: Vaccinia Venus | Vaccinia mCherry
Cc1ccc2oc(=O)c3cc(C(=O)Nc4cccc(C#N)c4)sc3c2c1 across the screens: -1% | 2%
COc1ccc(N2CCN(C(=O)NC34CC5CC(CC(C5)C3)C4)CC2)cc1 across the screens: ? | -26%

Next part
73) Cn1c(Cn2nnc3ccccc32)nnc1SCC(=O)NCc1ccc2c(c1)OCO2
74) CC(=O)Nc1nnc(-c2ccccn2)o1
75) CC(=O)c1ccc(S(=O)(=O)NC2CC2)cc1
76) Cc1ccc(CNC(=O)C(=O)NCC2OCCCN2S(=O)(=O)c2cccs2)cc1 (stereo not drawn)
77) CCN(CC)S(=O)(=O)c1ccc2c(c1)nc(CCC(=O)O)n2CC
78) O=C(COc1ccccc1Cl)NNC(=O)c1ccc2nc[nH]c2c1
assay / entry	73	74	75	76	77	78
Vaccinia Venus	-1%	4%	-3%	-8%	-1%	-10%
Vaccinia mCherry	-6%	-13%	i	0%	-1%	-5%

A run of entries from the list above, as a working copy:
65) COc1cc(/C=N/NC(=O)c2cccnc2)ccc1OCC(=O)Nc1c(C)cc(C)cc1C
66) CCOC(=O)CSc1nnc2n(Cc3ccccc3)c(=O)c3c4c(sc3n12)CCC4
67) CCOCCCNC(=O)C1CC(=O)N(C2CCCC2)C1 (stereo not drawn)
68) CC(C)C[C@@H](COc1ccccc1)N1CCN(CC(C)C)CCC1=O
69) CCN(CC)S(=O)(=O)c1ccc(N2CCOCC2)c(NC(=O)c2cc(C)cc(C)c2)c1
70) Cc1cc2oc(=O)cc(C)c2cc1NC(=O)CCl
71) O=[N+]([O-])c1cc(/C=N/O)ccc1Sc1ccccc1
72) CC(C)NC(=O)C1(C)CCCN1C(=O)c1cc(C#N)cs1 (stereo not drawn)
assay / entry	65	66	67	68	69	70	71	72
Vaccinia Venus	-3%	-11%	-1%	2%	-25%	?	?	6%
Vaccinia mCherry	i	-11%	-15%	i	-25%	?	·	15%

73) Cn1c(Cn2nnc3ccccc32)nnc1SCC(=O)NCc1ccc2c(c1)OCO2
74) CC(=O)Nc1nnc(-c2ccccn2)o1
75) CC(=O)c1ccc(S(=O)(=O)NC2CC2)cc1
76) Cc1ccc(CNC(=O)C(=O)NCC2OCCCN2S(=O)(=O)c2cccs2)cc1 (stereo not drawn)
77) CCN(CC)S(=O)(=O)c1ccc2c(c1)nc(CCC(=O)O)n2CC
78) O=C(COc1ccccc1Cl)NNC(=O)c1ccc2nc[nH]c2c1
assay / entry	73	74	75	76	77	78
Vaccinia Venus	-1%	4%	-3%	-8%	-1%	-10%
Vaccinia mCherry	-6%	-13%	i	0%	-1%	-5%

(next part)
79) COc1ccc(OC(=O)c2cccc(S(=O)(=O)N3CC(C)OC(C)C3)c2)cc1 (stereo not drawn)
80) CC(CSC(=O)c1ccccc1)C(=O)N1c2ccccc2CC1C(=O)O (stereo not drawn)
81) CN1CCN(c2ccc(NC(=O)C(C)(C)C)cc2)CC1
82) COc1ccc(OC)c(C2C(C#N)=C(N)N(N(C)C)C3=C2C(=O)CCC3)c1 (stereo not drawn)
83) COc1ccc(CCNC(=O)c2cnc3ccc(C)cn3c2=O)cc1OC
84) Cc1ccccc1C(OCC(O)CN1CCCCC1CCO)c1ccccc1 (stereo not drawn)
assay / entry	79	80	81	82	83	84
Vaccinia Venus	0%	3%	13%	-2%	-7%	-6%
Vaccinia mCherry	-14%	-7%	-6%	i	-12%	-19%

85) COc1ccc(C(=O)O/N=C(\N)Cc2ccc(Cl)c(Cl)c2)cc1OC
86) Cc1cc(C)cc(CSCC(=O)NN=C2CCCCCC2)c1
87) CCOC(=O)c1cc(CC)sc1NC(=O)COc1ccccc1C
88) Oc1cccc(/C=N/Nc2ncnc3c2ncn3Cc2ccccc2)c1
89) Cc1cc(C)cc(NC(=O)N2CCC(N3CCN(Cc4ccccc4)C(=O)C3=O)CC2)c1
assay / entry	85	86	87	88	89
Vaccinia Venus	?	-5%	-7%	-19%	5%
Vaccinia mCherry	?	-21%	-10%	-25%	3%
